TAR Tat displ: HIV-1 TAR-Tat binding disruption | HIV-1 TAR RNA, Tat peptide displacement FRET; stronger effect = higher value | z-score (concentration not given with the values) | hit rate 0.6% among 100,000;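 also: score is relative to mean and SD of negative controls; some compounds called inactive have numbers as strong as hits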
CDC25B-CDK2 inh: human CDC25B-CDK2/CyclinA binding inhibition. z-score (no concentration beside the values). hit rate 0.72% among 94,000. HTRF CDC25B-CDK2/CyclinA binding, anti-His/anti-Flag; stronger effect = higher value. P30305+P24941. AID 1259370;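 also: score is relative to mean and SD of negative controls; strong numbers were not always called active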
Active calls of the source: *; x = not tested or not shown.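 The calls were made as follows: active = z-score from 3 up in half or more of its runs; inactive = the rest.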

mol	TAR Tat displ	CDC25B-CDK2 inh
CCc1ccccc1Nc1nc2ccc(C)cc2n2nnnc12	-6.5	x
O=C(NCc1ccco1)C1CCN(C(=O)N2CCOc3ccccc32)CC1	1.3	x
Cc1ccc2c(c1)NC(SCC(=O)N1CCOc3ccc(C)cc31)=NS2(=O)=O	2.3	x
O=c1ccc(-c2ccc(S(=O)(=O)N3CCCCC3)s2)n[nH]1	-0.36	x
O=C(c1cnc(N2CCOCC2)nc1)N1CCN(c2ncccn2)CC1	0.07	x
Cc1cc(C)cc(NC(=O)C(C)n2c3ccccc3c3nc(=O)cc(C)n32)c1 (configuration not stated)	-0.07	0.79
O=C(CSc1ccc2nnc(CCNS(=O)(=O)c3ccccc3)n2n1)c1ccc(Cl)cc1	2.4	x
Cc1ccc2oc(-c3ccc(NC(=S)NC(=O)c4cccc(Cl)c4)cc3O)nc2c1	x	-2.4
COc1ccc(C2C(C(=O)c3ccco3)=C(O)C(=O)N2CCCN(C)C)cc1OC (configuration not stated)	0.83	-0.6
CN(C)S(=O)(=O)c1ccc2c(c1)oc(=O)c1cc(S(=O)(=O)N(C)C)ccc12	-0.5	0.68
O=C(CC1(O)C(=O)Nc2ccc(Br)cc21)c1ccc2c(c1)CCCC2 (configuration not stated)	x	-1.8
CCOC(=O)CSC1=NC(=O)CS1	0.71	-0.79

More results.
mol	TAR Tat displ	CDC25B-CDK2 inh
O=c1c2ccccc2nc2n1CCc1c-2[nH]c2ccccc12	2.6	0.15
Cc1cc(-c2ccc(C)c(S(=O)(=O)N3CCC(N4CCCCC4)CC3)c2)on1	0.55	x
c1cncc(-c2csc(NCc3ccco3)n2)c1	0.15	-0.31
O=C(Cn1nnc2ccccc21)N/N=C/c1cccs1	x	1.4
O=C(Oc1ccc(-n2cnnn2)cc1)c1cccs1	-1.4	-1.7
CCOC(=O)N1CCN(S(=O)(=O)c2cc(-c3n[nH]c(=O)c4c3CCCC4)ccc2C)CC1	0.34	-1.1
C=C1C2CC[C@@]3(C)[C@H](c4ccoc4)OC(=O)C[C@]13O[C@H]1C[C@H](OC(C)=O)C(C)(C)[C@H](CC(=O)OC)[C@@]21C	17	x
CN1CCN(CCCNC(=O)CCCN2C(=O)CSc3ncccc32)CC1	-0.11	-1.8
CCOC(=O)C1CCN(c2c(NCCCN3CCOCC3)c(=O)c2=O)CC1	-0.4	-2.7
CCc1cc2c(Nc3ccccc3)ncnc2s1	0.25	x
CCOC(=O)c1c(NC(=O)Nc2cccc(Cl)c2)sc2c1CCCC2	x	-0.86
COc1cccc2c1C(=O)c1c(O)c3c(c(O)c1C2=O)C[C@@](O)(C(C)=O)C[C@@H]3O[C@H]1C[C@H](N)[C@H](O)[C@H](C)O1	0.93	x

(more compounds)
mol	TAR Tat displ	CDC25B-CDK2 inh
COc1ccc(C2CC(=O)NC3=C2C(=O)CCC3)c(OC)c1 (configuration not stated)	-0.91	-0.64
C#CCSc1nc(C)c2c(n1)CCCC2	x	-0.28
COc1ccc2cc3c(nc2c1)N(C(=O)COc1ccccc1)CC3	0.56	-0.95
Cc1ccc(C)c(C(=O)CC2(O)C(=O)N(C)c3ccccc32)c1 (configuration not stated)	0.69	-0.56
NC(=O)c1ccccc1NC1=NS(=O)(=O)c2ccccc21	x	-1.4
CCOc1cc(C2c3c(oc4ccccc4c3=O)C(=O)N2c2nccs2)ccc1O (configuration not stated)	-0.62	-1.3
CCn1nc(C)c(CNS(=O)(=O)c2ccc(OC)c(Cl)c2)c1C	0.29	x
COC(=O)C1C(=O)C2=C(CC1C)NC(C)=C(C(=O)OCCOc1ccccc1)C2c1cccc(O)c1 (configuration not stated)	0.68	0.49
CCOc1ccc(C2CC(c3cccc(Br)c3)n3nnnc3N2)cc1Cl (configuration not stated)	0.93	x
CC1CCC(NC(=O)C2CCN(c3cnccn3)CC2)CC1 (configuration not stated)	1.8	-1.3
Cc1cc2c(s1)CCc1cc(C(=O)NCC3CCCO3)sc1-2 (configuration not stated)	2.1	x
Cc1cc(C)c2c(CC(=O)N(Cc3ccccc3)C3CCS(=O)(=O)C3)coc2c1 (configuration not stated)	-0.54	-2.3

Further compounds follow:
mol	TAR Tat displ	CDC25B-CDK2 inh
CCOC(=O)c1cnc2c(C#N)cnn2c1-c1ccccc1	1.4	1.1
COC(=O)C1C(=O)C2=C(CC1C)NC(C)=C(C(=O)OCCOC(C)C)C2c1ccc(C)o1 (configuration not stated)	-0.75	0.06
COc1ccc(Br)cc1CNC(=O)Cn1ncn2nc(-c3ccco3)cc2c1=O	-1.3	-1.8
CCOC(=O)NC(=S)Nc1cc(C(C)(C)C)ccc1NC(C)=O	x	-0.4
COc1ccc2[nH]c(=O)c(CN(c3ccc(C)cc3)S(C)(=O)=O)cc2c1	0.82	0.2
O=C(Nc1ccc(Br)cc1)Nc1nc2c(s1)CCCCCC2	-0.25	x
Cc1ccc(C)c(Nc2ncnc3c2cnn3-c2ccc(F)cc2)c1	0.53	x
CC1=CCc2c(cc3oc(C)cc(=O)c3c2O)OC1	1.1	x
CC(=O)OC[C@H]1O[C@@H](n2ncc(=O)[nH]c2=O)[C@H](OC(C)=O)C1OC(C)=O (some centres not stated)	x	0.89
Cn1c(=O)c2c(SCC(=O)N3CCc4ccccc43)nc(CC(C)(C)C)nc2n(C)c1=O	-0.67	x
COCCCNC(=O)Cn1c(=O)c2cccn2c2cccnc21	0.2	x
O=C(NC(=S)Nc1cccc(Cl)c1Cl)c1cccc([N+](=O)[O-])c1	x	-1.6

Reprinted from the part before: 5 compounds; new compounds follow.
mol	TAR Tat displ	CDC25B-CDK2 inh
CC1=CCc2c(cc3oc(C)cc(=O)c3c2O)OC1	1.1	x
CC(=O)OC[C@H]1O[C@@H](n2ncc(=O)[nH]c2=O)[C@H](OC(C)=O)C1OC(C)=O (some centres not stated)	x	0.89
Cn1c(=O)c2c(SCC(=O)N3CCc4ccccc43)nc(CC(C)(C)C)nc2n(C)c1=O	-0.67	x
COCCCNC(=O)Cn1c(=O)c2cccn2c2cccnc21	0.2	x
O=C(NC(=S)Nc1cccc(Cl)c1Cl)c1cccc([N+](=O)[O-])c1	x	-1.6
O=c1c2ccccc2nc2sc(Nc3ccc(Br)cc3)nn12	-0.14	x
CC(C)(C)c1nnc2sc(-c3ccc4c(c3)OCCO4)nn12	-0.39	-1
CCN(CC)CCNc1nc(-c2ccco2)c2c(c1C#N)CC(C)(C)OC2	0.25	0.23
CCCN(CC#CC(O)(c1ccccc1)c1cccnc1)CCC (configuration not stated)	2.1	-0.06
Cc1cc(C)cc(-n2nnc(-c3nc(-c4ccccc4C)no3)c2N)c1	-0.36	x
Cc1cc(=O)n2nc(N3CCCC(C(=O)NCc4ccccn4)C3)sc2n1 (configuration not stated)	1.2	0.73
CC(=O)OCc1cc(=O)n2ccsc2n1	0.02	x
COc1ccc(OC2CCN(S(=O)(=O)c3ccc(OC)c(OC)c3)CC2)cc1	-1.5	-1.2
CCC1(CC)Cc2ccccc2C(NC(=O)N2CCCC2)=C1C#N	0.89	0.07
CCN(CC)c1cc(C)nc(NCc2ccccc2)n1	x	-1.2
O=C(/C=C/c1cccc([N+](=O)[O-])c1)Nc1ccc(O)c(-c2nc3ccccc3o2)c1	x	-3.5
O=C(c1cc2c(=O)n3ccccc3nc2s1)N1CCN(c2ccccc2Cl)CC1	x	-0.7

Sorted by length of the SMILES (low to high): six of the compounds above
mol	TAR Tat displ	CDC25B-CDK2 inh
CCN(CC)c1cc(C)nc(NCc2ccccc2)n1	x	-1.2
CCCN(CC#CC(O)(c1ccccc1)c1cccnc1)CCC (configuration not stated)	2.1	-0.06
O=c1c2ccccc2nc2sc(Nc3ccc(Br)cc3)nn12	-0.14	x
CCC1(CC)Cc2ccccc2C(NC(=O)N2CCCC2)=C1C#N	0.89	0.07
CCN(CC)CCNc1nc(-c2ccco2)c2c(c1C#N)CC(C)(C)OC2	0.25	0.23
O=C(c1cc2c(=O)n3ccccc3nc2s1)N1CCN(c2ccccc2Cl)CC1	x	-0.7

New compounds follow
mol	TAR Tat displ	CDC25B-CDK2 inh
COc1ccc(C(=O)CC2(O)C(=O)N(CCc3ccccc3)c3ccccc32)cc1 (configuration not stated)	0.44	1
CCOC(=O)c1cnc(C(F)(F)F)nc1Nc1ccccc1Cl	x	-1.7
CCCCc1nn2c(=O)cc(CSc3nc4ccc(NC(C)=O)cc4s3)nc2s1	0.54	x
C=CCOc1ccc(C(=O)Nc2nonc2-c2ccc(OC)cc2)cc1	-1.3	-0.19
O=C(COc1ccccc1)NCC(c1ccco1)S(=O)(=O)c1cccs1 (configuration not stated)	2.4	x
CNC(=O)N/N=C/c1c(-c2c(Cl)cccc2Cl)noc1C	x	-1.9
COc1cccc(-c2noc3ncnc(NCc4ccccc4OC)c23)c1	-0.05	x
CC1Cc2ccccc2N1c1ccc(C(=O)NCCN2CCOCC2)s1 (configuration not stated)	1.7	x
Clc1cc(Cl)cc(OCc2csc(-c3cccs3)n2)c1	x	-1.6
O=C(NC1CCN(C(=O)c2cc(-c3ccc(Cl)cc3)oc2C(F)(F)F)CC1)c1ccccc1	x	-0.59
O=C(Nc1cccc(Cl)c1)N1CC2CCCN2c2ccccc21 (configuration not stated)	0.25	x
OCc1nc2ccccc2n1Cc1ccc(Cl)cc1	-0.68	-0.34

Following part:
mol	TAR Tat displ	CDC25B-CDK2 inh
CC1CCN(S(=O)(=O)c2ccc3[nH]c(=O)[nH]c3c2)CC1	0.01	-0.88
O=C(Nc1ccc(C(=O)N2CCOCC2)cc1)C1=CSCCO1	1.5	x
CCOC(=O)c1c(C)oc2nc(C)nc(Nc3ccc(C(C)C)cc3)c12	1.1	x
CC(C)CCNC(=O)C1(C)Cn2c(c(-n3cccc3)c3ccccc32)C(=O)N1Cc1ccccn1 (configuration not stated)	0.62	x
CCOC(=O)N1CCc2c(sc3c2C(=O)NC(c2ccc(Cl)cc2)N3)C1 (configuration not stated)	0.18	-1.4
CCN(CC)c1ccc(C2Nc3ccc4ncccc4c3C3=C2C(=O)CCC3)cc1 (configuration not stated)	1.3	-0.95
CCCCNc1cc(F)nc(N)n1	2.3	1
COC(=O)c1c(C)[nH]c(C)c1/C=C(\C#N)C(=O)c1ccc(Cl)cc1	x	-0.1
COc1ccc(N2C(=O)c3c(c4ccccc4n3C)C2c2cc(OC)ccc2OC)cc1 (configuration not stated)	x	-0.24
CCCc1n[nH]c(=O)c2c1nnn2Cc1ccccc1F	0.3	0.09
O=C(Cc1cccs1)Nc1nnc2n1CCS2	0.32	x
COc1nc2cc(C)ccc2cc1-c1noc(-c2ccncc2)n1	0.83	-4

Continuation:
mol	TAR Tat displ	CDC25B-CDK2 inh
Cc1ccc(CNC(=O)c2ccc(Cl)c(NC3=NC4CS(=O)(=O)CC4S3)c2)cc1 (configuration not stated)	1.8	x
C=CCNc1nc(Nc2cccc(Cl)c2)c2cnn(C)c2n1	1.1	x
COc1ccc(Cl)cc1Nc1ncnc2onc(-c3ccc(F)cc3)c12	0.2	x
O[C@@H]1CSSC[C@H]1O	x	-0.72
CCOC(=O)c1ccc2[nH]c(CSc3nnc(CC(C)C)n3C)cc(=O)c2c1	-1.2	x
CCCC(=O)N1CCN(c2cc(N3CCCC3)nc(C)n2)CC1	-0.47	-1.4
CCC1c2ccc(C)n2CCN1C(=O)Nc1cc(C)cc(C)c1 (configuration not stated)	-7.7	-2.5
CCCCOC(=O)C1CCCC(C(=O)OCCCC)N1 (configuration not stated)	x	-2.5
O=C(NC(CO)C(O)c1ccc([N+](=O)[O-])cc1)C(Cl)Cl (configuration not stated)	x	-0.94
O=C(Nc1cccc(C(F)(F)F)c1)n1nc(C(F)(F)F)c2cnccc21	x	0.12
CCOc1ccc(C2c3c(oc4cc(C)c(C)cc4c3=O)C(=O)N2CCCN2CCOCC2)cc1 (configuration not stated)	-0.52	1.5
CN=C1NC(=O)CC(C(=O)Nc2ccc(F)c(Cl)c2)S1 (configuration not stated)	1.1	1.3

The list goes on:
mol	TAR Tat displ	CDC25B-CDK2 inh
O=S(=O)(c1ccc(-c2cnc(C3CC3)o2)cc1)N1CCCc2ccccc21	2.1	x
COc1ccc(C2CCCN2S(=O)(=O)c2cccc3nsnc23)cc1 (configuration not stated)	0.62	-2.6
Cc1nc2ccccc2c2oc(C(=O)NCC3CCCO3)cc12 (configuration not stated)	x	-1.1
O=C(NCc1ccc(F)cc1)c1nc2c(nnn2CC2CCCO2)c(=O)[nH]1 (configuration not stated)	1.2	-0.69
Cc1ccc(C2C3=C(Nc4ncnn42)c2ccccc2CCC3)cc1 (configuration not stated)	1.8	0.05
CCCCCn1c(=O)c2sccc2n2c(CCC(=O)N3CCC(N4CCCCC4)CC3)nnc12	-0.35	x
Cc1ccc(C)c(N2CCN(S(=O)(=O)c3c(C)nc4sc5ccccc5n4c3=O)CC2)c1	0.73	-1.5
Cc1ccc(O)c(-c2cc(C(F)(F)F)[nH]n2)c1	-1.5	0.89
O=[N+]([O-])c1ccc(Sc2n[nH]c(C(F)(F)F)n2)nc1	x	0.53
CCC(C)OC(=O)C1=C(C)NC2=C(C(=O)CC(c3ccccc3)C2)C1c1ccc(N(C)C)cc1 (configuration not stated)	0.79	0.06
CCN(CC)C(=O)c1ccc2c(c1)NC(=O)CS2	1.1	x
Cc1ccc(C)c(NS(=O)(=O)c2ccc3c(c2)CC(C)N3C(=O)C2CC2)c1 (configuration not stated)	-0.26	x

More results
mol	TAR Tat displ	CDC25B-CDK2 inh
CCOC(=O)c1noc2ncnc(N3CCCc4ccccc43)c12	0.44	x
O=C(Cn1c(=O)c(CNc2ccccc2)cc2cc3c(cc21)OCCO3)Nc1ccc2c(c1)OCCO2	-0.25	x
Cc1nc(N2CCOCC2)c2c(C(=O)NC3CCCCC3)c(C)oc2n1	0.68	x
CCOC(=O)c1c(NC(=O)CN(CC)CC)sc2c1CCCC2=O	1.8	-1.3

Screens from PubChem.
